# PINK1 expr mod – PINK1 expression modulation; 410,000 compounds, 0.2% hits; Potency, µM (series often up to 76.6 µM), without a hit: at the top dose activation (PINK1 increase), hits mostly activators; AID 624263; PINK1 immunofluorescence, high-content cytometry, 24 h; active = well fitted activation curve with a large enough effect; inconclusive = small, poorly fitted or top-dose-only effect; inactive = flat fitted curve, though single readings scatter; cell line not stated here;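 also: potency is read from the fitted curve at half-maximal effect; % of control where 0% means no effect; nearly all actives have a fitted effect of over 65% in size; a mitochondrial uncoupler was the plate control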
#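 Stable cell line treated 24 h with compounds at 5 concentrations (CCCP controls), then fixed and immunostained for PINK1 plus nuclear and cell stains; PINK1 immunofluorescence quantified by laser-scanning microplate cytometry.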
# Sfp PPTase inh – inhibitors of Bacillus subtilis Sfp phosphopantetheinyl transferase; Biochemical Sfp PPTase activity, qHTS; 310,000 compounds, 3.5% hits; AID 1490; Potency, µM, for inactives: max response, negative = inhibition, most hits filed as inhibitors; Q9F4F7; active = well fitted inhibition curve with a large enough effect; inconclusive = small, poorly fitted or top-dose-only effect, or another doubt; inactive = no such curve, though single readings can be large or run the other way;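 also: the enzyme is Sfp with the accession as filed and its product quenches rhodamine fluorescence; potency is read from the fitted curve at half-maximal effect; 0% = enzyme reaction without inhibitor and -100% = no enzyme wells; top concentration of the series not given in the record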
#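 Fluorescence-quenching assay with 15 nM Sfp, 5 uM rhodamine-CoA and 12.5 uM BHQ-2-labelled ybbR peptide in pH 7.6 Hepes/MgCl2 buffer. Enzyme was pre-incubated with compound for 15 min at room temperature. Rate was taken from the 30-min fluorescence change (525/598 nm).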
# TRPV1 PAM – potentiators of human vanilloid receptor 1 (TRPV1). TRPV1-expressing cells, Fluo-8 calcium influx, capsaicin EC20 potentiation; host cell line not named in the record; control for the full effect not named in the record. potentiation, % at 8.33 µM. 320,000 compounds, 0.02% hits. Q8NER1; active means potentiation above 80%; inconclusive means 30% to 80%; inactive means below 30%; also: 0% is about no effect
# Target sequence (Q8NER1 whole entry, looked up): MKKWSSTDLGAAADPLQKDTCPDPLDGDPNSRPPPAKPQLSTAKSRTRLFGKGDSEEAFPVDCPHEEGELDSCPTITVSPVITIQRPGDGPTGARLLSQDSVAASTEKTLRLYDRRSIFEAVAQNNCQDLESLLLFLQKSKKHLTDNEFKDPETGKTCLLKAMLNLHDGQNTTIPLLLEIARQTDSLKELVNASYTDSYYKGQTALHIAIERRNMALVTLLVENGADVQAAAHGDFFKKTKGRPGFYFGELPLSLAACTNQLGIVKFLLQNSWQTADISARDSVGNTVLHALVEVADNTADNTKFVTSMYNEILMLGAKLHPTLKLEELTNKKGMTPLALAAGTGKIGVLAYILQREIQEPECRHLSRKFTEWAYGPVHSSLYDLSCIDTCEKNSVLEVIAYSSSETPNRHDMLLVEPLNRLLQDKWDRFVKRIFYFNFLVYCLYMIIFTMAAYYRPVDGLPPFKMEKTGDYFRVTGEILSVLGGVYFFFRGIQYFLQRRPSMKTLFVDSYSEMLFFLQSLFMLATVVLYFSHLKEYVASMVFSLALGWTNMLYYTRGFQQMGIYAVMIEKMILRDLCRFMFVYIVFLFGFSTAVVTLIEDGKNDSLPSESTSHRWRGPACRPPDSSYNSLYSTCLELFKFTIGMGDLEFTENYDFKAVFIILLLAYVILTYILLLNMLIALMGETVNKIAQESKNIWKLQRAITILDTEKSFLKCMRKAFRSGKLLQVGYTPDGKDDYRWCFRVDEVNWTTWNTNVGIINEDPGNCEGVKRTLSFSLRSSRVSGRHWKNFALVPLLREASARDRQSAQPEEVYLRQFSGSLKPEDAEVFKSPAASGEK
#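 Cells expressing TRPV1 were dye-loaded with Fluo-8 and read kinetically: 10 s baseline, 3 min after compound (agonist portion), then 2 min after EC20 capsaicin (allosteric enhancer portion). Calcium-bound dye fluorescence at 480/520 nm.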
# Six1-Eya2 inh – blocks human Six1 binding to Eya2; AID 651725; 360,000 compounds, 0.56% hits; activity change, % (concentration not given with the values); Q15475+O00167; AlphaScreen GST-Six1/His-Eya2 binding, biochemical; stronger effect = lower value; control for the full effect not named in the record; in the data active = activity change below about -65%; inconclusive = about -30% to -65%; inactive = above about -30%; also: % is scaled to controls: 0 for no effect and ±100 for the full control effect
#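 AlphaScreen with GST-Six1 and His-Eya2 (5X mix: 250 nM and 500 nM), glutathione donor and nickel acceptor beads; buffer 50 mM Tris pH 8.0, 300 mM NaCl, 1 mM TCEP; 1 h at 37 C in the dark.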
# CtBP-E1A inh – CtBP/E1A binding inhibition | AlphaScreen GST-E1A/His-CtBP binding, 1536-well; stronger effect = lower value; control for the full effect not named in the record | activity change, % (concentration not given with the values) | 340,000 compounds, 0.49% hits; in the data active means activity change below about -65%; inconclusive means about -30% to -65%; inactive means above about -30%; also: % is scaled to controls: 0 for no effect and ±100 for the full control effect
#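 Steps: dispense buffer (Tris pH 8.0, NaCl 300 mM, TCEP 1 mM, BSA, Tween 20); add 5X protein mix (GST-E1A, His-CtBP, 125 nM each); pin 23 nL compound; 2 h at 37 °C, dark; add 5X beads (50 ug/mL); 1 h; read.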
# D2 PAM – positive allosteric modulators of human D2 dopamine receptor. potentiation, % (test concentration not listed). DiscoveRx D2 beta-arrestin cells, luminescence, 90 min; 100% = 57 uM dopamine signal. 360,000 compounds, 0.23% hits; active = potentiation of 50% or more; inconclusive = 30% to 50%; inactive = 30% or less;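 also: compound concentration not given in the record; tested on top of an EC20 dose of dopamine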
#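 D2 cells co-treated with compound plus 50 nM dopamine (EC20) for 90 min at 37 deg C to detect potentiation. Beta-arrestin recruitment was read as enzyme-fragment luminescence after 1 h at ambient temperature. Full response was set by 57 uM dopamine.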
# D2 ag – activates the human D2 dopamine receptor; P14416; DiscoveRx PathHunter D2 beta-arrestin, luminescence, 90 min; 100% = 57 uM dopamine signal; activation, % (no concentration beside the values); 360,000 compounds, 0.084% hits; in the data active = activation above about 40%; inconclusive = about 15% to 40%; inactive = below about 15%; also: compound concentration not given in the record; the text of the record calls up to 30% inactive
#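 DiscoveRx PathHunter D2 beta-arrestin cells (2,100/well) attached overnight, then compound-stimulated 90 min at 37 C in HBSS/10 mM HEPES/0.1% Tween-20 buffer; beta-galactosidase complementation read by luminescence after 1 h at ambient temperature. Dopamine 57 uM final (EC100) as control.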
# * hit, by the source's call; ? = inconclusive; . = no result given; & = joins results of further samples; [ ] = remark or other dose.
SMILES,PINK1 expr mod,Sfp PPTase inh,TRPV1 PAM,Six1-Eya2 inh,CtBP-E1A inh,D2 PAM,D2 ag
CCOC(=O)c1ccc(NC(=O)C2C3C=CC(C3)C2C(=O)O)cc1 (stereo not given),0.6%,7%,3,2,3,-1,-1.0
COc1ccc(N2CCN(C(=O)c3ccc4c(c3)CCN4S(C)(=O)=O)CC2)cc1,1.8%&-0.6%,.,.,-2,3,-5,-4.2
CCO[C@@H]1OC(C(=O)N2CCOCC2)=C[C@H](C(C)(C)C)[C@H]1CCCO,1.2%,.,.,1,-6,-42,-1.5
Cc1ccc(S(=O)(=O)NN=C2CC(C)(C)CC(=O)C2(C)C)cc1,-1.5%,.,.,1,5,1,-3.1
CCn1c(SCC#N)nc2c(c1=O)C1(CCCC1)Cc1ccccc1-2,4.2%,6%,-2,-3,-2,7,-3.6
C#CCNC(=O)C1=C[C@H](c2ccc(C(F)(F)F)cc2)[C@@H](CCCO)[C@H](OCC)O1,2.0%,1%,-13,0,4,1,1.6
Cc1noc(C)c1COC(=O)CCCc1nc2ccccc2s1,5.8%,-30%,29,12,-1,1,-1.6
CC(C)CN(C(=O)COC(=O)CSc1ccccc1)c1c(N)n(Cc2ccccc2)c(=O)[nH]c1=O,17%,.,21,7,17,25,-3.4
C[C@@H]1CN([C@@H](C)CO)C(=O)CCCn2cc(nn2)CO[C@H]1CN(C)S(=O)(=O)c1ccccc1C#N,1.9%,.,.,8,-5,-11,-11
Cn1nnnc1SCC(=O)c1ccco1,-2.6%,?,15,4,4,-14,-4.0
O=S1OC(c2ccccc2)c2cc(Cl)ccc21 (stereo not given),1.3%,.,-13,-3,0,11,2.0
COc1cc(NC2=Nc3cccc4cccc2c34)cc(OC)c1OC,16%,-2%,8,?,?,-15,-3.0
C[C@@H]1CC=C[C@H]2[C@H]1C(=O)N(Cc1ccccc1)[C@H]2c1ccc2ccccc2c1,2.4%,-10%,-21,-8,-9,-14,-5.1
COc1cc(OC)cc(C(=O)NNC(=O)CN2C(=O)NC(C)(c3ccccc3)C2=O)c1 (stereo not given),2.6%,.,-1,1,-9,11,-3.1
CN(C)S(=O)(=O)c1ccc(C(=O)NCC(=O)Nc2ccc(F)c(F)c2)cc1,-2.3%,12%,2,1,0,-6,-3.4
Cc1ccc(S(=O)(=O)Nc2ccccn2)c(C)c1,1.0%,.,.,-16,-8,-6,-4.3
CCOCCCN1CC(C(=O)NCc2ccc3c(c2)OCO3)CC1=O (stereo not given),0.3%,16%,14,2,7,1,-4.3
C/C(=N\NC(=O)c1cc(C)oc1C)c1ccc2c(c1)OCO2,2.6%,8%,-10,-1,1,-5,-0.4
COc1ccc(N(C(=O)c2ccc(F)cc2)C2=CC3CCC(C2)N3C)cc1 (stereo not given),-0.5%,1%,1,0,5,-2,-1.4
CCC/C(C#CCCN1C(=O)c2ccccc2C1=O)=C1/c2ccccc2C(=O)N1c1ccccc1,0.5%,.,.,-6,-2,-4,3.1
Cc1ccc(-n2nc(C)c3c(-c4cccs4)c(C#N)c(N)nc32)cc1,5.4%,2%,-4,10,20,-14,-3.3
COc1ccccc1CNC(=O)C1CCCN(S(=O)(=O)c2c(C)[nH]c(=O)[nH]c2=O)C1 (stereo not given),-2.4%,2%,?,-3,1,-2,-1.7
O=C(NCc1ccccc1)c1cc(C2CCCCN2S(=O)(=O)c2cccc3cccnc23)on1 (stereo not given),-0.7%,.,.,1,-1,3,-3.7
CCC(C)Oc1cc(-c2ccnc(Nc3cccc(Cl)c3)n2)ccn1 (stereo not given),0.2%,-8%,-27,15,26,-4,-0.7
Cc1ccc(C)c(S(=O)(=O)N2CCN(C(=O)CCC(=O)NCc3ccc(Cl)cc3)CC2)c1,3.1%,.,-11,7,.,-20,0.3

# A portion taken from the entries so far:
SMILES,PINK1 expr mod,Sfp PPTase inh,TRPV1 PAM,Six1-Eya2 inh,CtBP-E1A inh,D2 PAM,D2 ag
CCOC(=O)c1ccc(NC(=O)C2C3C=CC(C3)C2C(=O)O)cc1 (stereo not given),0.6%,7%,3,2,3,-1,-1.0
COc1ccc(N2CCN(C(=O)c3ccc4c(c3)CCN4S(C)(=O)=O)CC2)cc1,1.8%&-0.6%,.,.,-2,3,-5,-4.2
CCO[C@@H]1OC(C(=O)N2CCOCC2)=C[C@H](C(C)(C)C)[C@H]1CCCO,1.2%,.,.,1,-6,-42,-1.5
Cc1ccc(S(=O)(=O)NN=C2CC(C)(C)CC(=O)C2(C)C)cc1,-1.5%,.,.,1,5,1,-3.1

# By substructure: the compounds so far with an NH in an aromatic ring.
SMILES,PINK1 expr mod,Sfp PPTase inh,TRPV1 PAM,Six1-Eya2 inh,CtBP-E1A inh,D2 PAM,D2 ag
CC(C)CN(C(=O)COC(=O)CSc1ccccc1)c1c(N)n(Cc2ccccc2)c(=O)[nH]c1=O,17%,.,21,7,17,25,-3.4
COc1ccccc1CNC(=O)C1CCCN(S(=O)(=O)c2c(C)[nH]c(=O)[nH]c2=O)C1 (stereo not given),-2.4%,2%,?,-3,1,-2,-1.7

# The results go on:
SMILES,PINK1 expr mod,Sfp PPTase inh,TRPV1 PAM,Six1-Eya2 inh,CtBP-E1A inh,D2 PAM,D2 ag
N=C1/C(=C\c2ccc(Br)o2)C(=O)N=C2SC(CC(=O)N3CCCCC3)=NN12,1.8%,4%,6,-18,.,0,-0.7
CCN1CCN(c2ccc(NC(=O)c3ccc(Cl)c(S(=O)(=O)N4CCCC4)c3)cc2)CC1,-1.1%,.,-4,-5,-3,-11,-1.3
O=C(CN1C(=O)COc2ccccc21)c1cccc(Cl)c1,-2.1%[38.3 µM],2%,-15,5,5,-7,-2.6
O=C(Nc1ccc(F)cc1F)N1CCCCCC1,5.4%,5%,2,-7,1,-11,-2.4
O=C(Nc1cccnc1)Nc1ccc(F)c(Cl)c1,30%[38.3 µM],4%,-17,0,-4,-6,1.1
Cc1nc(C)c(/C(O)=C\c2nc3ccc([N+](=O)[O-])cc3oc2=O)o1,2.4%,56µM*,3,-10,-1,-1,3.3
COc1ccc(S(=O)(=O)N(C)C[C@H]2OCc3cnnn3CCCC(=O)N([C@@H](C)CO)C[C@H]2C)cc1,2.5%,.,.,-3,5,6,-1.5
CCOc1ccc(N2C(=O)CC(Sc3n[nH]c(-c4ccccc4)n3)C2=O)cc1 (stereo not given),-0.6%,?,-1,-1,.,-6,7.7
O=C(COc1ccccc1)N1CCN=C1SCc1ccccc1F,0.8%,5%,13,0,4,-4,1.5
C=CCOc1nc(-c2ccncc2)nc2ccccc12,1.8%,-21%,-12,2,-1,6,-2.1
CC1=NN(c2ccccc2)C(=O)/C1=C/c1c(O)n(-c2ccc(F)cc2)[nH]c1=O,-2.1%,-15%,4,?,0,-28,-11
COc1ccc(CN(C)S(=O)(=O)c2nnc(NC(=O)c3ccccc3Br)s2)cc1,0.7%,27%,?,0,-4,-6,2.2
Cc1ccc(C)c(CN2C(=O)COc3ccc(C(=O)c4ccccc4C(=O)O)cc32)c1,-2.6%,-11%,-30,-4,11,1,-0.6
CCc1nnc(NC(=O)C2CC(=O)N(CCc3ccc(F)cc3)C2)s1 (stereo not given),0.2%,8%,7,20,-10,-3,-4.1
CC1CCc2nc(NC(=O)Nc3ccc4c(c3)OCO4)sc2C1 (stereo not given),11%,-8%,3,-10,1,-4,-0.8
C=CCS/C(=N\n1cnc2ccccc2c1=O)N(CC)CC,0.0%,-3%,?,9,0,-11,-4.1
O=C(CN1CCN(S(=O)(=O)c2ccccc2F)CC1)NCC1(N2CCOCC2)CCCCC1,0.9%,.,3,3,6,-3,-3.3
CCn1c(SCC(=O)NC2CC2)nnc1-c1csc(C)c1,1.6%,15%,-2,-9,-2,-9,0.7
CC1Oc2ccccc2OC1(O)c1ccc2ccccc2n1 (stereo not given),0.7%,9%,-9,6,9,5,-1.6
CCCNC(=S)NC1CC2CCCC(C1)N2Cc1ccc(F)cc1 (stereo not given),2.2%,21%,-1,-2,.,-78,-0.2
COc1ccc(CC(=O)OCC(=O)NC(=O)NC2CCCC2)cc1,3.9%,.,-17,0,5,0,-2.8
COCc1cc(C)n(CC(=O)N/N=C/c2ccc(-c3ccc(Cl)c(C(=O)O)c3)o2)c(=O)c1C#N,-0.5%,?,-15,?,-1,-22,-2.5
O=C(COC(=O)c1ccc(S(=O)(=O)N2CCCC2)cc1)Nc1cccc(F)c1,1.7%,.,2,7,-2,0,4.5
O=C1C2C3c4ccccc4C(c4ccccc43)[C@@H]2C(=O)N1c1ccccn1 (stereo not given in full),-0.9%,9%,.,-26,1,0,0.9
CC(C)c1ccc(NC(=O)CN(Cc2ccccc2)S(C)(=O)=O)cc1,1.0%,17%,?,-15,1,-21,-0.6

# More results.
SMILES,PINK1 expr mod,Sfp PPTase inh,TRPV1 PAM,Six1-Eya2 inh,CtBP-E1A inh,D2 PAM,D2 ag
CC(Nc1ccc2c(c1)OCCO2)C(=O)Nc1ccc2c(c1)OCO2 (stereo not given),0.6%,2%,-3,-23,-7,-3,-1.7
O=C(CCC1CCCN(C(=O)C2=CCCC2)C1)N1CCN(c2ccccn2)CC1 (stereo not given),1.6%,11%,3,-7,2,-5,-4.0
CC1CCCC(C)N1C(=O)Cn1cnc2cc([N+](=O)[O-])ccc2c1=O (stereo not given),-0.5%,5%,2,-22,-8,5,8.6
COc1ccc(-c2c(-c3cc(OC)cc(OC)c3)n(C)c3ccc(-c4ccc(N(C)C)nc4)cc23)cc1,8.4%,.,2,-16,-5,-8,-2.4
Cn1nnnc1SCC(=O)Nc1ccc(Cl)c(S(=O)(=O)N2CCOCC2)c1,1.8%,1%,4,-9,.,-8,-1.9
COC(=O)C(CC(=O)c1ccc(Br)cc1)n1ccnc1 (stereo not given),3.2%,1.6µM*,-11,.,.,.,.
Cc1ccccc1-c1cnc(C(O)c2ccc(Cl)c(F)c2)[nH]1 (stereo not given),6.3%,.,.,-10,-15,-22,-4.6
O=S(=O)(Nc1ccc(-n2cccc2)cc1)c1ccc(Cl)cc1Cl,-1.1%,6%,12,-21,-16,-4,-1.9
O=C(c1cc(S(=O)(=O)N2CCOCC2)c(Cl)cc1Cl)N1CCCC1,0.7%,.,-14,-1,5,-2,-2.6
CC(C)CNC(=O)CC(=O)NN=C1CCCC1,0.9%,16%,2,4,3,7,-6.4
Cc1ccc(Nc2cc(C)nc3nc(C)nn23)cc1,0.2%,12%,7,-11,-13,0,-7.2

# Source: PubChem BioAssay (National Center for Advancing Translational Sciences (NCATS))
